Tg IFNy HTS: inhibitors of Toxoplasma gondii growth with IFN-gamma; Toxoplasma gondii growth in IFN-gamma-treated host cells; hits give low values; reference of the scale not given here; activity change, negative = inhibition, %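 (about 20 µM by stock and volumes)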; AID 1259416; actives 3.8% (n = 69,000);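 active = below -70%; inconclusive = fit judged invalid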;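 also: host cells are HeLa cells infected with Toxoplasma gondii; parasite growth read as luciferase light; one replicate is shown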
* hit, by the source's call; ? = inconclusive.

SMILES | Tg IFNy HTS
CC1=C(C(=O)NCCC(C)C)C2(CCN(S(=O)(=O)c3cccs3)CC2)OC1=O | 30.1
CC(C)(C)c1cc(O)c(C(C)(C)C)cc1O | 10.8
CC(C)NS(=O)(=O)c1ccc(NC(=O)c2cc(-c3ccncc3)nc3ccccc23)cc1 | -32.8
CCOc1ccc(-c2nc(CN3CCN(C(=O)NCCc4ccccc4)CC3)c(C)o2)cc1 | -35.2
O=S(=O)(NCCc1csc(-c2cccc(F)c2)n1)c1ccccc1F | -50.4
FCCN1CCC2(CC1)CC(NC1CCOCC1)c1ccccc1O2 (stereo unspecified) | 4.2
O=C(C[C@@H]1CC[C@H](NC(=O)c2ccc3c(c2)OCO3)[C@@H](CO)O1)NCc1ccc(Oc2ccccc2)cc1 | -29.3
NC(=O)c1noc([C@H](CCCC2CCCCC2)CC(=O)NO)n1 | -59.9
Cc1ccccc1-c1nc(Cn2c(C)nc3onc(C)c3c2=O)c(C)o1 | -40.6
CC(C)c1nnsc1CN1CCc2[nH]nc(-c3ccc(F)c(F)c3)c2C1 | -18.1
CCc1nc(OCC(=O)Nc2ccccc2)c2ccccc2n1 | -7.1
Cc1ccc(C(=O)O)cc1NC(=O)c1cccs1 | -2.8
COCC(=O)N1CC[C@@H](OCc2ccccn2)[C@@H](Cc2ccccc2)C1 | -0.7
Cc1nnsc1CN(C)C(=O)CCC(=O)NC1CCCC1 | 7.0
CC(Cc1ccccn1)NC(=O)C1COc2cc(C(C)(C)C)ccc2O1 (stereo unspecified) | 2.3
CN(C)C(=O)NC1CC2(CCN(Cc3ccsc3)CC2)C1 | 21.3
O=S(=O)(NCCc1csc(-c2cccc(F)c2)n1)c1ccc2c(c1)CCCC2 | 26.3
O=C(Nc1cccc(C(=O)N2CCOCC2)c1)c1cc2ccccc2c(=O)s1 | -4.5
Cc1nccn1CCCC(=O)Nc1ccccc1Oc1ccc(F)cc1 | 7.5
COc1cc(-c2nccn2CCc2cnc[nH]2)cc2c1OCO2 | -19.0
Cn1nc(NC(=O)c2ccc(CSc3ccc(Cl)cc3)o2)c2c(F)cccc21 | 8.8
COc1ccc(Cl)cc1C(=O)Nc1ccc(-c2nc(Cn3cccn3)c(C)o2)cc1 | 78.8
O=C(NCC[C@H]1CC[C@H](NS(=O)(=O)c2ccc(F)cc2)[C@@H](CO)O1)c1ccc2c(c1)OCO2 | 9.2
CN(C)C(=O)N1CCN(c2ccc3ccc(C(=O)NCCc4ccccc4)cn23)CC1 | -2.5
COCCN1C(=O)N(C2Cc3ccccc3C2)C(=O)C12CCN(Cc1ccc3c(c1)CCO3)CC2 | -27.9
COc1ccc(NC(=O)NCC(c2cccnc2)c2c[nH]c3ccccc23)c(OC)c1 (stereo unspecified) | 419.1
CC(=O)N1CCC2OCCCC2(COCc2ccccn2)C1 (stereo unspecified) | 20.3
CC(C)N(C(=O)NC(=O)c1csnn1)C(C)C | 12.4
CS(=O)(=O)N1[C@H](CO)[C@@H](c2ccc(C#Cc3cccc(F)c3)cc2)[C@@H]1C#N | -22.6
COCCN1C[C@@H]2CCN(c3ncc(F)cn3)CC[C@H]2S1(=O)=O | -3.8
CCOC(=O)C1(CC2CC2)CCN(Cc2cnc(-c3ccc(Cl)cc3)nc2)CC1 | -0.1
COc1cc2c(cc1CCNS(=O)(=O)c1ccc3c(c1)sc(=O)n3C)CCC2 | -17.3
O=C(Nc1ccccc1Cl)c1c(O)c2cccnc2n(-c2cccc(F)c2)c1=O | -87.0*
Cc1nc(-c2nc(C(=O)C3CC3)c3ccccn23)cn1C(C)C | 28.3
CN(CC1COc2ccccc2O1)C(=O)Cn1cc(NC(=O)c2ccccn2)cn1 (stereo unspecified) | 24.4
Cc1ccc(CN2CCC3(CC2)CN(c2cccc(F)c2)C3=O)o1 | 57.5
O=C(COc1ccc(Cl)cc1)N1CCC2(CC1)Nc1ccccc1-n1cccc12 | -8.2
Cc1ccc2oc(=O)n(CC(=O)NC(Cc3cc(=O)[nH]c(C(C)C)n3)c3ccccc3)c2c1 (stereo unspecified) | 4.4
CCCCNc1nc(-c2nnc(-c3ccc(C)cc3)o2)nc2ccccc12 | -39.5
CC(C)N1CCC2(CCOCC2NC(=O)c2ccccc2)CC1 (stereo unspecified) | 5.3
CSC1=NCCN1CC(=O)c1ccc(Cl)cc1 | 23.9
C[C@@H]1CN([C@H](C)CO)C(=O)c2cc(NC(=O)Cn3cnnn3)ccc2O[C@H]1CN(C)Cc1ccc(C(=O)Nc2ccccc2N)cc1 | 55.3
COc1ccc(NC(=O)c2cncc(NS(=O)(=O)c3ccc(OC)c(OC)c3)c2)cc1 | 24.9
CN(Cc1cc2n(n1)CCNC2)Cc1noc2c1CCCC2 | 0.8
C[C@@H]1CCCCO[C@@H](CN(C)C(=O)Cc2ccccc2)[C@@H](C)CN([C@H](C)CO)C(=O)c2cc(NS(C)(=O)=O)ccc2O1 | -66.8

Ordered by length of the SMILES (largest number first): 7 of the compounds above
SMILES | Tg IFNy HTS
C[C@@H]1CCCCO[C@@H](CN(C)C(=O)Cc2ccccc2)[C@@H](C)CN([C@H](C)CO)C(=O)c2cc(NS(C)(=O)=O)ccc2O1 | -66.8
COc1ccc(NC(=O)c2cncc(NS(=O)(=O)c3ccc(OC)c(OC)c3)c2)cc1 | 24.9
CCOC(=O)C1(CC2CC2)CCN(Cc2cnc(-c3ccc(Cl)cc3)nc2)CC1 | -0.1
COc1cc2c(cc1CCNS(=O)(=O)c1ccc3c(c1)sc(=O)n3C)CCC2 | -17.3
Cc1ccc(CN2CCC3(CC2)CN(c2cccc(F)c2)C3=O)o1 | 57.5
CN(Cc1cc2n(n1)CCNC2)Cc1noc2c1CCCC2 | 0.8
CSC1=NCCN1CC(=O)c1ccc(Cl)cc1 | 23.9

New compounds follow
SMILES | Tg IFNy HTS
CCOC(=O)CN1CCCOc2c(cccc2OC)C1 | -7.9
O=C(Cn1nc(-c2ccccc2)c2ccccc2c1=O)N1CC[C@H](O)[C@@H](O)C1 | 2.5
Cc1noc(-c2ccccc2)c1CNc1nc(-c2ccccc2)nc2ccccc12 | 28.0
Cc1nc(COC[C@]23COC[C@H]2CN(C(=O)CN(C)C)C3)cs1 | 74.4
Cc1ccc(C(=O)N2C[C@@H]3COC[C@@]3(CN3CCOCC3)C2)s1 | 1.5
O=C(CCC1N=C2c3ccccc3N=C(SCc3ccccc3F)N2C1=O)NC1CCCCC1 (stereo unspecified) | 18.3
CC1(C)[C@H]2CC=C(CN3CCC4(CC3)C(=O)N(CC(N)=O)C(=O)N4CCc3ccccc3)[C@@H]1C2 | ?
CCC(=O)N1[C@H](C#N)[C@H](c2ccccc2-c2ccccc2)[C@@H]1CO | -3.5
CCC(C)n1nc(NC(C)=O)c2cc3cc(C)ccc3nc21 (stereo unspecified) | -9.9
Cc1nc(-c2cccc(F)c2)sc1CCNC(=O)c1ccc(C(C)(C)C)cc1 | -43.5
NC(=O)c1ccc(-c2ccccc2F)cc1 | 59.2
CC(C)(C)c1nc(CN2CCC(c3ccccc3C(=O)O)C2)no1 (stereo unspecified) | -1.9
CC(C)N1C[C@H](NC(=O)c2cnccn2)C2OCCCC21 (stereo partly specified) | -40.1
CCC1CN(Cc2cncn2CC(C)C)CCC(=O)N1Cc1ccccc1 (stereo unspecified) | -11.5
COc1ccccc1C1(O)CCCN(CC(O)c2ccc(C)cc2)C1 (stereo unspecified) | -41.6
O=C(c1ccco1)N1CCC2(CC1)CN(c1ccccc1)C2=O | 10.0
C[C@@H]1CN([C@@H](C)CO)C(=O)c2cccc(NC(=O)Nc3ccc(C(F)(F)F)cc3)c2O[C@H]1CN(C)S(=O)(=O)c1cn(C)cn1 | -26.3
CCN1C(=O)CC(c2ccccc2)C12CCN(C(=O)C1CCOC1)CC2 (stereo unspecified) | 52.8
Cc1oc(C2CCN(S(=O)(=O)c3cccc(Cl)c3)CC2)nc1C(=O)N1CCCC1 | -43.8
O=C(c1ccccc1-c1ccccc1)N1CCC(c2ccncc2)CC1 | -1.8
Cc1cnc2c(C(=O)N(C)Cc3cn[nH]c3-c3ccccc3)cnn2c1 | -3.9
Cc1ccc(-c2nc(CCNC(=O)C(=O)Nc3cccc(C)c3C)cs2)cc1 | 18.6
CC(C)c1nccc([C@H]2C[C@H]3CCN(c4ncc(F)cn4)C[C@@H]3O2)n1 | -14.3
O=C(Nc1ccc(C(F)(F)F)cc1)N[C@H]1C=C[C@H](CC(=O)N2CCCCC2)O[C@@H]1CO | -41.8
c1csc(-c2cn3nc4c(nc3n2)CCCC4)c1 | 12.4
CCS(=O)(=O)N1CCOCC2(CN(c3cnn(C)c3)C(=O)CO2)C1 (stereo unspecified) | 5.0
CCC(O)C1CCN(c2ccc(-c3ccccc3OC)nn2)CC1 (stereo unspecified) | 231.3
C/C=C/c1ccc([C@H]2[C@@H](CO)N(CC3CCCC3)C23CN(S(=O)(=O)CC)C3)cc1 | -53.4
Cc1ccc(Nc2nc(N)nc(CN3CCN(C(=O)c4ccco4)CC3)n2)cc1Cl | 52.5
CCc1nc(NC(=O)c2cc3cc(C)ccc3nc2C)n[nH]1 | -23.0

Reprinted at random: five compounds from above.
SMILES | Tg IFNy HTS
CCS(=O)(=O)N1CCOCC2(CN(c3cnn(C)c3)C(=O)CO2)C1 (stereo unspecified) | 5.0
CCc1nc(NC(=O)c2cc3cc(C)ccc3nc2C)n[nH]1 | -23.0
CCC(O)C1CCN(c2ccc(-c3ccccc3OC)nn2)CC1 (stereo unspecified) | 231.3
c1csc(-c2cn3nc4c(nc3n2)CCCC4)c1 | 12.4
O=C(Nc1ccc(C(F)(F)F)cc1)N[C@H]1C=C[C@H](CC(=O)N2CCCCC2)O[C@@H]1CO | -41.8

Next section:
SMILES | Tg IFNy HTS
c1cc2nc(C3CCNCC3)nn2cc1NC1CCC1 | 26.5
CCCC(=O)Nc1cc2oc3ccccc3c2cc1OC | 77.0
CCCN1C[C@@H](C)[C@H](OC)CN(C)C(=O)c2cc(NC(=O)Nc3cccc(F)c3)ccc2OC[C@@H]1C | 51.2
O=C(NC(Cc1ccccc1)C(O)c1nccs1)C1CC=CCC1 (stereo unspecified) | 1.2
CC(=O)Nc1ccc(CNC(=O)CNC(C)c2cnn(C)c2)cc1 (stereo unspecified) | 0.6
O=C(CCN1C(=O)NC2(CCCC2)C1=O)Nc1cccc(-c2cccc(F)c2)c1 | 16.8
CO[C@@H]1CN(C)C(=O)c2cc(NC(C)=O)ccc2OC[C@H](C)N(Cc2ccncc2)C[C@@H]1C | 89.4
CCS(=O)(=O)N1CCC2(CC1)OC(=O)C(C)=C2C(=O)NCCCN(C)C1CCCCC1 | 4.7
CCOC(=O)c1nc(NCCN2CCCc3ccccc32)c2ccccc2n1 | 274.9
Nc1ccccc1-c1nc2ccccc2s1 | 111.1
CCOc1ccc(S(=O)(=O)N2CCC3(CC2)Nc2cc(OC)ccc2-n2cccc23)cc1 | -3.1
CC(=O)N1N=C(c2c(-c3ccccc3)c3cc(Cl)ccc3[nH]c2=O)CC1c1ccccc1Cl (stereo unspecified) | -64.7
Cc1cc(C)c2c(n1)sc1c(=O)oc(C)nc12 | 13.9
C[C@@H]1CN([C@@H](C)CO)C(=O)c2ccccc2-c2ccccc2CO[C@H]1CN(C)C(=O)c1cc(Cl)cc(Cl)c1 | -40.4
Cc1cnc(N)c2c(=O)oc3ccccc3c12 | -5.2
COc1ccc2c3c(n(C)c2c1)[C@H](CO)N(Cc1cccc(Cl)c1)CC31CCN(C(=O)C2CC2)CC1 | -11.3
Cn1cc(CN2CCC3(CC2)CN(S(C)(=O)=O)c2ccccc23)cn1 | -5.0
O=C(c1ccc(N2CCCCC2)cc1)N1CCc2c([nH]c3ccccc23)C1c1ccccn1 (stereo unspecified) | 2.8
Cc1cccc2c1C(NC(=O)Cc1c(C)nn(-c3ccccc3)c1C)C(=O)N2 (stereo unspecified) | -53.1
C[C@@H]1CN([C@H](C)CO)C(=O)CCCn2nncc2CO[C@H]1CN(C)C(=O)Nc1ccnc(N2CCOCC2)c1 | 71.3
Cc1cccc(C)c1-c1c(-c2ccccc2)ncn1CCC(=O)N1CCCC1 | 4.7
CC1N(Cc2cccnc2)C(=O)COC12CCN(Cc1cnn(C)c1)CC2 (stereo unspecified) | 4.3
O=C(c1ccc(F)cc1)N1CCn2nnc(COCc3cccnc3)c2C1 | -3.9
CN(C(=O)c1ccsc1)C(Cc1ccccc1)C1CCN(C(=O)C2=CCCC2)CC1 (stereo unspecified) | -8.5
CC(C)n1cc(-c2noc(-c3ccccc3Cl)n2)c(=O)n(Cc2ccccc2)c1=O | -34.1
O=C(O)CN1CCCC2(CCN(Cc3cccc(F)c3)C2=O)C1 (stereo unspecified) | -45.9
CCn1c2c(ccc1=O)CC(NS(=O)(=O)c1ccc(C)cc1)CC2 (stereo unspecified) | -4.4
CCc1ncc(C(O)c2ccc(OC)cc2)n1C (stereo unspecified) | 11.9
O=C(c1ccno1)N1CCC2(CC1)CCN(Cc1cccc(F)c1)C2=O | -4.0
COC(=O)C[C@H]1CC[C@H]2[C@@H](COC[C@@H](O)CN2S(=O)(=O)c2cn(C)cn2)O1 | -20.2
Cc1nn(Cc2ccccc2)c(C)c1/C=C/C1=CCN(C)CC1 | -6.4
CN(Cc1nc(-c2cccnc2)no1)C(=O)CC1COCCN1 (stereo unspecified) | 3.5
CC(=O)N1CCC(C(=O)NCc2ccccc2)(N(C(=O)c2ccc(C)cc2)c2ccc(C)c(F)c2)CC1 | 5.9
CC(=O)C1(O)Cc2c(O)c3c(c(O)c2C(OC2CC(N)C(O)C(C)O2)C1)C(=O)c1c(O)cccc1C3=O (stereo unspecified) | -79.0*
CO[C@H]1CN(C)C(=O)c2cc(NC(=O)Nc3c(C)noc3C)ccc2OC[C@@H](C)NC[C@@H]1C | -50.0
O=C(Cn1ncc2c(N3CCCC3)ncnc21)Nc1ccc(N2CCOCC2)cc1 | 435.2
Cn1ccc(-c2cc(C(=O)C3CC3)c3ccccn23)n1 | 215.5
O=C(C[C@H]1CC[C@@H]2[C@H](COC[C@@H](O)CN2Cc2ccc3c(c2)OCO3)O1)N1CCCCC1 | -0.6
CCc1noc(-c2cc(=O)n(CC(=O)NC(C)CC)c3ccccc23)n1 (stereo unspecified) | 17.5
CCN1[C@@H]2c3ccc(-c4ccccc4OC)c(=O)n3C[C@H]1[C@H](CO)[C@H]2C(=O)NCc1ccccn1 | -8.7
CS(=O)(=O)N1CC(=O)N2[C@H](CO)[C@@H](c3ccc(Br)cc3)[C@@H]2C1 | 1.9

High-throughput results as filed in PubChem.

Only part of the results is shown; count on the stated rates, not on these rows.
